# Assay outcomes deposited in PubChem by Center for Chemical Genomics, University of Michigan.
# CDC25B CDK2 inh: human CDC25B-CDK2/CyclinA binding inhibition; P30305+P24941; HTRF CDC25B-CDK2/CyclinA binding, anti-His/anti-Flag; stronger effect = higher value; z-score (test concentration not listed); actives 0.72% (n = 94,000);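 also: score is relative to mean and SD of negative controls; strong numbers were not always called active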
# HIV TAR-Tat: HIV-1 TAR-Tat binding disruption. HIV-1 TAR RNA, Tat peptide displacement FRET; stronger effect = higher value. z-score (no concentration beside the values). AID 1259389. actives 0.6% (n = 100,000);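 also: score is relative to mean and SD of negative controls; some compounds called inactive have numbers as strong as hits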
# Starred values were filed as active, the others as inactive; · = not tested or not shown; & = joins results of further samples.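 The calls were made as follows: active = z-score from 3 up in half or more of its runs; inactive = the rest.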
SMILES,CDC25B CDK2 inh,HIV TAR-Tat
Cc1nc(SCC(=O)Nc2nccs2)c2c(=O)n(C)c(=O)n(C)c2n1,·,1.32
N#CC1=C(SCC(=O)Nc2ccc(Cl)cc2)NC(=O)CC1c1cccs1 (stereo not drawn),-2.96,-0.5
O=C(NC1(C(F)(F)F)N=C(c2ccccc2F)NC1=O)c1ccncc1 (stereo not drawn),-1.03,·
O=C(c1cc2c(s1)-c1ccc(Cl)cc1SC2)N1CCCCC1,-3.64,0.35
CN1C(=O)N(C)C2NC(=S)NNC21 (stereo not drawn),-1.82,·
COC(=O)CSc1nc(-c2ccccc2)nc2c1Cc1cccc(OC)c1O2,-0.85,0.28
CCCNC(=O)Cn1nc(C(F)(F)F)c2c1CCCC2,-0.5,0.58
Cc1ccc(NC(=O)Nc2c(C)nc3nc[nH]n3c2=O)cc1,-0.04,-0.22
CC1(C)CC(=O)C=C(N2CCOCC2)C1,-2.22,·
Cc1n[nH]c(=O)nc1SCC(=O)Nc1ccc(F)cc1,-2.58,0.94
COc1ccc(C2CC(=O)Nc3c2cnn3-c2nc3ccccc3s2)cc1OC1CCCC1 (stereo not drawn),·,0.52
CCN1c2ccccc2-c2nc(SCC(N)=O)ncc2S1(=O)=O,·,-1.23
CCOC(=O)CC(=O)Nc1nc(C2COc3ccccc3O2)cs1 (stereo not drawn),-1.13,2.08
O=C(NCC1CCCO1)C1Sc2nnc(-c3ccccc3)n2NC1c1ccc(Cl)cc1 (stereo not drawn),-2.09,1.01
O=C(CCC1=NS(=O)(=O)c2ccccc2N1)Nc1ccc(F)cc1,·,0.15
CCOC(=O)C1CCN([C@H]2CS(=O)(=O)C[C@@H]2S(=O)(=O)c2ccc(Cl)cc2)CC1,-1.17,-0.21
CCCCSc1nc2c(c(=O)[nH]1)C(c1cccnc1)C(C(=O)OCC)=C(C)N2 (stereo not drawn),-1.49,2.14
O=C(Nc1cc(F)c2nc(N3CCOCC3)ccc2c1)c1ccco1,·,-2.19
CC(=O)N1CC2(C)CN(C(C)=O)CC(C(C)C)(C1)C2=O,-0.2,-0.78
COc1ccc(S(=O)(=O)N(CC(=O)NO)CC(C)C)cc1,·,1.72
CC1=C(C(=O)OCCOc2ccccc2)C(c2ccncc2)C2=C(CCCC2=O)N1 (stereo not drawn),-1.52,0.07
CC1CCN(C(=O)CCc2nnc3ccc(NCc4ccco4)nn23)CC1,·,0.85
CC(C)C1N=C2c3ccccc3N=C(SCC(=O)Nc3ccccc3F)N2C1=O (stereo not drawn),·,1.3
Cn1c(=O)[nH]c(=O)c2c1nc1n2CCN1Cc1ccco1,-1.74,0.6

# Three successive records from above, for reference:
SMILES,CDC25B CDK2 inh,HIV TAR-Tat
CCOC(=O)CC(=O)Nc1nc(C2COc3ccccc3O2)cs1 (stereo not drawn),-1.13,2.08
O=C(NCC1CCCO1)C1Sc2nnc(-c3ccccc3)n2NC1c1ccc(Cl)cc1 (stereo not drawn),-2.09,1.01
O=C(CCC1=NS(=O)(=O)c2ccccc2N1)Nc1ccc(F)cc1,·,0.15

# Continued:
SMILES,CDC25B CDK2 inh,HIV TAR-Tat
O=c1c2ccccc2nc2n1CCN2Cc1ccccc1,-0.62,0.61
Cc1nc(SCC(=O)Nc2ccc(Cl)cn2)oc1C,·,0.94
C=CCN(Cc1nc(-c2ccc(Cl)cc2)no1)S(=O)(=O)c1ccccc1,-0.06,1.47
COc1ccc(-n2[nH]c3[nH]c(-c4ccccc4)cc(=O)c3c2=O)cc1,-4.43,0.78
C/C(=N\Nc1ccccc1)c1ccc(Oc2ncc([N+](=O)[O-])s2)cc1,-1.55,·
CCOc1ccccc1N1CN(CC)CNC1=S,-0.1,·
CCn1cc(S(=O)(=O)c2cc(C)cc(C)c2)c(=O)c2cc(F)c(N3CCCC3)cc21,·,1.51
Cn1c(C(=O)O)ccc1S(=O)(=O)NCc1ccco1,-0.46,·
CCCOC(=O)COc1ccc2c(=O)c(Oc3cc(C)cc(C)c3)coc2c1,-1.17,0.52
CC1(C)CC(=O)C2=C(C1)OC(N)=C(C#N)C2c1ccccc1Cl (stereo not drawn),-0.94,·
CCOC(=O)c1c(C)c(C(=O)N(CC)C2CCCCC2)c(C)n1C,-1.3,·
CSc1nc(-c2ccccc2)nc2[nH]c(-c3ccccc3)cc(=O)c12,0.33,1.02
COc1ccc(Cl)cc1-c1noc(-c2ccco2)n1,-0.76,-1.22
COc1ccc(C(=O)O)c(Cl)c1OC,-1.06,·
COc1cc(NC(=O)C2CC(C)=C(C)CC2C(=O)O)cc(OC)c1 (stereo not drawn),-1.09,·
CCCCN1C(C(=O)c2ccccc2)=C(OC(=O)c2ccco2)c2ccccc2S1(=O)=O,-1.15,0.8
Cc1nc(N(C)C)cc(N2CCN(S(=O)(=O)c3ccc(Br)cc3)CC2)n1,-0.57,1.41
Cc1cccc(-n2ncc3c(NCCCn4ccnc4)ncnc32)c1,-2.91,·
Cc1nn(CC(=O)NC2CCCc3ccccc32)c(=O)c2cc3occc3n12 (stereo not drawn),0.53,1.08
COc1cccc(/C=C/c2nc(C#N)c(NCc3ccccc3)o2)c1,-0.61,4.46
c1ccc(-c2nnc3sc(-c4cnccn4)nn23)cc1,-1.3,1.31
Cc1cc(-c2ccc(C(C)C)c(S(=O)(=O)NC3CCCCC3)c2)on1,·,-0.94
Cc1cn2c(=O)cc(CSc3nc4ccc(NC(=O)c5ccco5)cc4s3)nc2s1,·,0.22
CCCCN1CCn2c(nc3ccccc32)C1,0.39,1.15
CCOc1ccccc1N1CC(c2nc3ccccc3n2CCC(C)C)CC1=O (stereo not drawn),-1.94,1.8
COc1cccc(/C=C/c2nc(C#N)c(NCc3ccc4c(c3)OCO4)o2)c1,-1.26,2.02
O=C(CN(C1=NC2CS(=O)(=O)CC2S1)c1ccccc1)NCC1CCCO1 (stereo not drawn),0.08,3.92
CCS(=O)(=O)n1nc(-c2ccccc2)nc1N,-0.49,0.72
O=c1cc(-c2ccccc2)nc(NCc2ccco2)[nH]1,-2.25,1.83
CC(C)OC(=O)c1c(-c2ccccc2)c(-c2ccccc2)n[nH]c1=O,-2.47,0.28
CC(C)Cn1cc(NC(=O)N(C)C2CCCCC2)c2ccccc2c1=O,·,1.34
O=C(Nc1cccc(C(F)(F)F)c1)N1CCN(c2ccccn2)CC1,-0.72,·
CCC(C)NC(=O)Cn1ncc2c1-c1ccccc1OC2 (stereo not drawn),-0.51,1.11
Cc1cc(-c2ccc(C)c(S(=O)(=O)NCc3ccc(OC(C)C)cc3)c2)on1,·,0.6
Cc1ccc(Nc2nc(N)c([N+](=O)[O-])c(N3CCCC3)n2)cc1,·,0.35
c1ccc(NCC2COc3ccccc3O2)nc1 (stereo not drawn),0.28,·

# The final seven compounds of the section before are carried over, then new ones follow:
SMILES,CDC25B CDK2 inh,HIV TAR-Tat
CC(C)OC(=O)c1c(-c2ccccc2)c(-c2ccccc2)n[nH]c1=O,-2.47,0.28
CC(C)Cn1cc(NC(=O)N(C)C2CCCCC2)c2ccccc2c1=O,·,1.34
O=C(Nc1cccc(C(F)(F)F)c1)N1CCN(c2ccccn2)CC1,-0.72,·
CCC(C)NC(=O)Cn1ncc2c1-c1ccccc1OC2 (stereo not drawn),-0.51,1.11
Cc1cc(-c2ccc(C)c(S(=O)(=O)NCc3ccc(OC(C)C)cc3)c2)on1,·,0.6
Cc1ccc(Nc2nc(N)c([N+](=O)[O-])c(N3CCCC3)n2)cc1,·,0.35
c1ccc(NCC2COc3ccccc3O2)nc1 (stereo not drawn),0.28,·
C=CCOc1ccc(C2NC(=O)NC(O)(C(F)(F)F)C2C(=O)c2cccs2)cc1 (stereo not drawn),-2.82,·
CCn1c(N2CCCCCC2)nc2c1c(=O)[nH]c(=O)n2C,-0.16,·
O=C1c2cccnc2C(=O)N1Cc1ccc(S(=O)(=O)NCc2ccc(F)cc2)cc1,·,0.59
CC1CCC(C(=O)Nc2ccc3[nH]c(=O)oc3c2)CC1 (stereo not drawn),·,0.24
COc1ccccc1N1CCN(C(=O)CC2=NS(=O)(=O)c3ccccc3N2)CC1,·,0.54
CCc1nc2nc(C)cc(Nc3ccccc3C)n2n1,-1.08,0.24
C=C(C)CSc1nnc2[nH]c(=O)cc(N)n12,0.77&-1.02,0.67
O=C(CSc1ncnc2c1oc1ccccc12)Nc1ccc2c(c1)OCO2,-3.75,·
O=S(=O)(Nc1ccc(-c2nnc(-c3ccccc3)o2)cc1)c1ccc(Cl)cc1,·,0.17
CCOC(=O)CCS(=O)(=O)c1ccc(Cl)cc1,-1.71,1.06
Fc1ccc(Cn2c(COCc3nc4cccnc4n3Cc3ccc(F)cc3)nc3cccnc32)cc1,·,-0.14
COC(=O)c1cc(OC)c(OC)c(OC)c1NC(=O)c1ccc([N+](=O)[O-])o1,-2.3,·

# Profiles from above.
# O=C(CSc1ncnc2c1oc1ccccc12)Nc1ccc2c(c1)OCO2 as listed: CDC25B CDK2 inh: -3.75; HIV TAR-Tat: ·
# CCc1nc2nc(C)cc(Nc3ccccc3C)n2n1 as listed: CDC25B CDK2 inh: -1.08; HIV TAR-Tat: 0.24

# The results go on:
SMILES,CDC25B CDK2 inh,HIV TAR-Tat
COC(=O)c1cn(CC(=O)N2CCOCC2)c2ccccc12,1.5,1.41
CCc1nn(CCCC(=O)NCc2ccccn2)c(=O)c2cc3occc3n12,-0.68,2.11
CC1(C)Cc2c(C#N)c(SCC(=O)NCc3ccco3)nc(N3CCOCC3)c2CO1,-2.06,-0.07
O=C(Nc1cccc(C(=O)NC2CCCC2)c1)C1=CSCCO1,·,2.21
CCCCCCCCCCCCCCCC(=O)OC/C=C(C)/C=C/C=C(C)/C=C/C1=C(C)CCCC1(C)C,·,-1.03
CCC(C)C(NS(=O)(=O)c1ccc(C)cc1)C(=O)Oc1ccc2c3c(c(=O)oc2c1)CCC3 (stereo not drawn),-1.35,·
Cc1ccc(-c2ncnc3c(C#N)c4ccccn4c23)cc1,0.79,2.39
FC(F)(F)c1cc(-c2cccs2)nc2c(-c3ccccc3)cnn12,0.37,-0.43
CC(C)C(=O)N(c1cc2sc(=O)oc2c2ccccc12)S(=O)(=O)c1cccs1,6.95*,0.5
CCCN1CCN(C(=O)Cn2cnc3sc(C)c(S(=O)(=O)N4CCC(C)CC4)c3c2=O)CC1,-0.65,1.05
CC1CCN(C(=O)C2CCNCC2)CC1,-1.91,-0.38
O=C(NCC1CCCO1)c1ccc(Cn2c(SCc3ccc(F)cc3)nc3cccnc32)cc1 (stereo not drawn),·,1.47
Cc1nc(NCCc2ccc3c(c2)OCCO3)c2cc(-c3ccccc3)sc2n1,-1.13,·
O=S(=O)(Nc1ccccc1Br)c1ccc2nc(-c3ccccc3)[nH]c2c1,-1.38,·
Cc1cc(Nc2ccc3c(c2)OCO3)n2nc(-c3ccco3)nc2n1,·,18.2*
O=C(c1ccco1)N1CCN(CC(=O)N2CCCc3c2c(=O)oc2ccc(O)cc32)CC1,-1.47,·
Cc1nc2sc3ccccc3n2c(=O)c1S(=O)(=O)N1CCN(c2ccccc2F)CC1,·,0.89
CC1(C)CC(=O)c2cc(OCc3ccc([N+](=O)[O-])cc3)c(OCc3ccc([N+](=O)[O-])cc3)cc2O1,-0.38,·
CN(C)c1ccc(C(CNS(=O)(=O)c2ccccc2)N2CCc3ccccc3C2)cc1 (stereo not drawn),·,0.57
c1c2c(cc3c1OCO3)OCN(CCOC13CC4CC(CC(C4)C1)C3)C2,-1.37,·
COc1ccc(S(=O)(=O)NCCSc2nnnn2-c2ccccc2)cc1OC,0.12,0.95
CCCC(=O)N(c1ccc2oc(=O)sc2c1)S(=O)(=O)c1ccc(Br)cc1,-5.13,0.6
S=c1nc2ccccc2c2nc(CCN3CCCCC3)[nH]n12,-1.28,·
O=C(CSc1cn(CC(=O)N2CCOCC2)c2ccccc12)Nc1ccc2c(c1)OCCO2,·,1.8
Nc1c(-c2nc(-c3ccccc3Cl)no2)nnn1-c1ccccc1Cl,·,-0.01
Cc1ccc(S(=O)(=O)N(CCc2ccccc2)CCS(=O)(=O)N2CCNCC2)cc1,·,1.76
O=C(CCN1C(=O)C2C3C=CC(C3)C2C1=O)N1CCN(c2ccccn2)CC1 (stereo not drawn),-1.91,·
CCS(=O)(=O)c1ccc(O)c(NC(=O)c2cccs2)c1,-1.61,1.19
CS(=O)(=O)c1ccc(-c2cccc(NS(=O)(=O)c3ccccc3F)c2)nn1,·,-0.36
O=C(Cn1sc2ccccc2c1=O)N1CCN(C(=O)c2ccco2)CC1,-1.42,2.09
C=CCOc1ccc(C2c3c(oc4cc(C)c(C)cc4c3=O)C(=O)N2c2ccccn2)cc1 (stereo not drawn),-0.74,-0.16
Cn1c(C2CC(=O)N(c3ccc(F)cc3)C2)nc2ccccc21 (stereo not drawn),-0.64,2.52
O=C(C1CCC(CNc2c(N3CCCCC3)c(=O)c2=O)CC1)N1CCCCCC1 (stereo not drawn),-0.72,·
Cn1ncc2c(NCc3ccc(F)cc3)ncnc21,·,0.93
CC1(C)CC(=O)C2=C(C1)OC(N)=C(C#N)C2c1ccoc1 (stereo not drawn),-1.95,·
CCOC(=O)N1CCC(N2CCN(S(=O)(=O)c3ccc(OC)cc3)CC2)CC1,0.46,0.62
CC1=C(c2ccccc2)S(=O)(=O)N=C1N1CCN(c2ccccc2F)CC1,-1.92,0.38
O=C1CCSc2ccc(S(=O)(=O)NC3CCCc4ccccc43)cc2N1 (stereo not drawn),·,2.19
COc1ccc(NC(=O)C2=CC(c3ccco3)=NS(=O)(=O)N2C)cc1OC,-1.39,1.79
COc1ccc(OCCSc2nc(-c3ccc(Cl)cc3)c(C#N)c(=O)[nH]2)cc1,3.23,-1.92
CCn1c(=S)[nH]c2sc3c(c2c1=O)CCCCC3,-1.43,·
COc1ccc2c(c1OC)C(=O)OC2NC(=O)c1cnn(-c2ccccc2)c1N (stereo not drawn),1.44,0.43
Cc1ccc(-c2nnc(Nc3ccc4c(c3)ncn4C)c3ccccc23)cc1,0.94,·
O=c1[nH]c(-c2ccc(O)cc2)nc2ccccc12,-1.48,·
